Screens as filed in PubChem.
FEN1 inh = qHTS Assay for the Inhibitors of Human Flap endonuclease 1 (FEN1); Recombinant FEN1 flap cleavage, fluorescence, 15 min; Potency, µM (doses to about 114 µM), without a hit: at the highest dose activity change, negative = inhibition, hits mostly inhibitors; actives 0.35% (n = 390,000); AID 588795, 2011; further: nearly all actives have a fitted effect of over 65% in size
Target sequence (P39748 whole entry, looked up): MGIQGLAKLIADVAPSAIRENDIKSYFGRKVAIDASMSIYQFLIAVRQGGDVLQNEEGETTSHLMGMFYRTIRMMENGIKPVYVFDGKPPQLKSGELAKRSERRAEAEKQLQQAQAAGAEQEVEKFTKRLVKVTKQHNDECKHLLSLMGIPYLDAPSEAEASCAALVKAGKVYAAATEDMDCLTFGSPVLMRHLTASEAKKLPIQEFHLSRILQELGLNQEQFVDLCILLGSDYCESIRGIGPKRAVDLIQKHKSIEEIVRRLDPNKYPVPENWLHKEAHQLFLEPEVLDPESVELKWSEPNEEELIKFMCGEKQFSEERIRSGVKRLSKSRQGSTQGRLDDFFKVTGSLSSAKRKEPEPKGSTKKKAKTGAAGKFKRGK
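Recombinant FEN1 (10 nM) was preincubated with pin-transferred compounds for 15 min at room temperature, then flap DNA substrate (50 nM final) was added. Plates were read at 0 and 15 min, and normalized concentration–response data were fitted to a four-parameter Hill equation.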
N370S GC mod = qHTS Assay for Inhibitors and Activators of N370S glucocerebrosidase as a Potential Chaperone Treatment of Gaucher Disease. Lysosomal acid glucosylceramidase (Homo sapiens), P04062. N370S GC spleen homogenate, 4MU-glucoside fluorescence. Potency, µM (titrated, usually from 59.4 µM), without a hit: at the top dose activity change, negative = inhibition, usual class: inhibitors. actives 0.092% (n = 330,000);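 further: 0% = full enzyme activity and -100% = no enzyme basal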
Starred values were filed as active, the others as inactive; ? = inconclusive; . = not tested or not shown; & = joins results of further samples; [ ] = another dose, or the depositor's remark. The call rests on the fitted dose curve; in most records, active means well fitted curve in the direction sought with a large enough effect; inconclusive means small, poorly fitted or top-dose-only effect, or another doubt; inactive means no such curve, though single readings can be large; an effect the other way counts as inactive or inconclusive. Unless noted, on the % scale 0 is the no-effect control and ±100 the full control effect; potency means the concentration at half of the fitted maximal effect.

SMILES | FEN1 inh | N370S GC mod
COc1ccccc1NC(=O)Nc1nc(-c2cccnc2)nc2ccccc12 | . | -1%&3%&-2%
Cc1ccc(N(C(=O)CC2NC(=O)NC2=O)C2(C(=O)NC3CCCC3)CCCCC2)cc1 (centres undefined) | 11% | -9%
Cc1nn(CC(=O)NCc2ccccc2)c(=O)c2ccccc12 | 3% | 0%
O=C(Nc1cccc(S(=O)(=O)N2CCOCC2)c1)C1CC1 | -5% | .
N#CC(C#N)=CN=c1ccn(Cc2ccc(Cl)cc2Cl)cc1 | 3% | -7%
CCOc1cc(C(=O)NCC(C)CN(C)C)cc(OCC)c1OCC (centres undefined) | 0% | -1%
COC(=O)c1ccc(OC)c(Cn2c(=O)n(-c3ccc(C)cc3)c(=O)c3c2cnn3C)c1 | -14% | .
CC(=O)OC(C(=O)NCc1ccc2c(c1)OCO2)c1ccccc1Cl (centres undefined) | -10% | -16%
NS(=O)(=O)c1ccc(CCNC(=O)c2ccccc2F)cc1 | 4% | 6%[2.35 µM]
Nc1ncnc2nc(Sc3ccc(Cl)cc3)[nH]c12 | 2% | -2%
CCn1cc(/C=N/NC(=O)COc2cccc3cccnc23)c2ccccc21 | -14% | 26%
COC(=O)CCC(=O)OC1(C)C(=O)C2=CN(CCN3CCOCC3)C(c3ccc(OC)cc3)=CC2=C(Br)C1=O (centres undefined) | . | -10%[12.8 µM]
COc1ccc(NC(=O)c2ccc3c(=O)n(-c4ccc(OC)cc4OC)c(=S)[nH]c3c2)cc1 | -14% | 2%
Cc1ccc(NC(=O)N2CCC(NC(=O)C(C)(C)C)CC2)cc1 | -6% | 4%
CCc1ccc(C(=O)NNC(=O)Cn2c(=O)cnc3ccccc32)cc1 | -2% | .
CCC(=O)NCc1ccc2[nH]c(C)cc2c1 | -10% | -5%
CC(=O)N1CCN=C1SCc1ccccc1F | -6% | 0%
CCc1ccc(Cc2cnc(NC(=O)C3=NCCN3)s2)cc1 | -1% | 13%
CC(C)(C)c1ccc(-c2nc(S(=O)(=O)c3ccccc3)c(N3CCOCC3)o2)cc1 | -16% | .
Cc1nc2c(-c3ccc(F)cc3)c(C)nn2c(C)c1CCC(=O)N1CCOCC1 | -9% | 1%
Cn1nnnc1SCC(=O)Nc1nc2c(F)c(F)c(F)cc2s1 | 13% | .
CCN(CC)S(=O)(=O)c1cc([N+](=O)[O-])ccc1NNC(=O)Nc1ccc(Cl)c(Cl)c1 | -18% | -1%
COc1ccc(NC(=O)/C(C#N)=C/c2cccnc2)c(OC)c1 | -18% | -3%
O=[N+]([O-])c1ccc(Sc2nc3ccccc3o2)c([N+](=O)[O-])c1 | -5% | 0%
N#CC1=C2SCN(c3ccccc3)CN2C(=O)CC1c1c(Cl)cccc1Cl (centres undefined) | 79µM* | -2%

In another format: results already given
| canonical_smiles | FEN1 inh | N370S GC mod |
| --- | --- | --- |
| Cc1nn(CC(=O)NCc2ccccc2)c(=O)c2ccccc12 | 3% | 0% |
| O=C(Nc1cccc(S(=O)(=O)N2CCOCC2)c1)C1CC1 | -5% | . |

(listing goes on)
SMILES | FEN1 inh | N370S GC mod
CCN1C=C(Cc2cccs2)C2=C(C1)C(c1cccs1)C(C#N)=C(N)O2 (centres undefined) | -12% | -18%
CC(=O)Nc1ccc(S(=O)(=O)N2CCC(C(=O)NCCC(=O)Nc3nccs3)CC2)cc1 | 16% | 5%
CCOc1ccc(NC(=O)CSc2nnc(C3CC3)n2N)cc1 | -2% | -9%
CN(C)CCCn1c(N)c(C#N)c2nc(C#N)c(C#N)nc21 | -6% | -5%
O=C(NNC(=S)Nc1ccccc1)Nc1ccccc1 | -11% | 4%
CC(=O)Nc1ccc(S(=O)(=O)NC2=C(N3CCN(C)CC3)C(=O)c3ccccc3C2=O)cc1 | 4% | 0%
O=C(NCc1ccccc1)c1cc(S(=O)(=O)N2CCCCC2)ccc1N1CCOCC1 | 3% | ?
Cc1cc(-c2ccccc2)n(-c2ccc(C(=O)NC(C)C)cc2)n1 | -2% | -4%
O=C(NNc1ncnc2c1cnn2-c1ccccc1)c1cccs1 | 9% | 1%
Cn1c([N+](=O)[O-])cnc1N1CCN(c2nncs2)C1=O | -3% | 9%
Cc1cccc(NC(=O)c2ccc(Cl)c(S(=O)(=O)N3CCCCCC3)c2)n1 | -10% | .
CC(OC(=O)CCC(=O)c1ccc(F)cc1)C(=O)NC1CCCCC1C (centres undefined) | 4% | -4%
Cc1ccc(C(=O)CCC(=O)Nc2cccc(C(F)(F)F)c2)cc1 | 7% | 7%
CCCCCNS(=O)(=O)c1cc(C)ccc1OC | -1% | 5%
CCOC(=O)c1c(C)[nH]c(C)c1C(=O)CSc1nnc(-c2ccncc2)n1C | -14% | -3%
C/C=C(/C)C(=O)Nc1cccc(C2=NOC3(C2)C[C@H](C(N)=O)N(C(=O)c2ccccc2)C3)c1 (some centres undefined) | -1% | 0%
CC(C)(C)c1ccc(S(=O)(=O)NCc2ccc3c(c2)CCN3C(=O)c2ccccc2)cc1 | -3% | .
Cc1nc2cc(NC(=O)N(C)c3ccc4ccccc4c3)ccc2o1 | -13% | -3%
COc1ccc(-c2cc(C(=O)n3cnc4ccccc43)c3ccccc3n2)cc1 | 3% | 21%
COc1cc(C(=O)Nc2ccc3c(c2)Cc2cc(NC(=O)c4cc(OC)c(OC)c(OC)c4)ccc2-3)cc(OC)c1OC | -4% | -2%
Brc1ccc(-c2csc(Nc3nc(-c4ccc(Br)cc4)cs3)n2)cc1 | -1% | -1%
CCOCCCNC(=S)N1CCCN(c2nc3cc(C)c(C)cc3cc2C#N)CC1 | -20% | 15%
CN(CC(=O)Nc1ccccc1Br)C(=O)CN(C)C1CCCCC1 | -1% | .
Cc1cc(C)cc(Oc2coc3cc(OC(=O)c4cccs4)ccc3c2=O)c1 | 9% | 5%
c1ccc(N2CCN(c3nc(NCc4ccco4)c4ccccc4n3)CC2)cc1 | -9% | ?

Taken from above.
Under FEN1 inh, `Cc1ccc(C(=O)CCC(=O)Nc2cccc(C(F)(F)F)c2)cc1` has the entry 7%
Under FEN1 inh, `CC(=O)Nc1ccc(S(=O)(=O)NC2=C(N3CCN(C)CC3)C(=O)c3ccccc3C2=O)cc1` has the entry 4%
Under N370S GC mod, `CCOCCCNC(=S)N1CCCN(c2nc3cc(C)c(C)cc3cc2C#N)CC1` has the entry 15%
Under N370S GC mod, `Cn1c([N+](=O)[O-])cnc1N1CCN(c2nncs2)C1=O` has the entry 9%

Following part
SMILES | FEN1 inh | N370S GC mod
CC(C)(C)c1cc(OC(=O)c2ccncc2)ccc1O | 2% | -13%
O=C(CSc1nc2[nH]c(=O)cc(O)c2s1)Nc1cc(Cl)cc(Cl)c1 | -10% | -14%
CC(=O)c1cccc(NC(=O)NCc2ccc3c(c2)OCO3)c1 | 2% | -1%
Cc1ccn2c(c1)nc(=O)c1cc(S(=O)(=O)N3CCC(C)CC3)ccc12 | 0% | 4%
COc1ccc(CCn2c(C3CCCCC3)nc3c(c(=O)c4ccccc4n3C)c2=O)cc1 | -8% | ?
CC1CCC2(CC1)NC(=O)N(CC(=O)NCCc1c[nH]c3ccccc13)C2=O (centres undefined) | -5% | .
CCC(C)NC(=O)CC(C)C (centres undefined) | -1% | 3%
O=C(C1CCN(S(=O)(=O)c2ccccc2F)CC1)N1CCc2ccccc2C1 | -8% | 5%
CN(CC(=O)NC1CCCCCCC1)S(=O)(=O)c1cccc2cccnc12 | -11% | 2%
COc1cccc([C@@H]2Oc3ccc(OC)cc3C(=O)[C@H]2OC(=O)N[C@H]2CCCc3ccccc32)c1 | . | 1%
CCN(CC)C(=O)[C@H]1C[C@H](CC(=O)NC(C)(C)C)C(=O)N2CCc3c([nH]c4ccc(Cl)cc34)[C@]12C | -1% | .
CC1CC(C)CN(C(=O)c2ccc3c(=O)n(Cc4ccc5c(c4)OCO5)c(=S)[nH]c3c2)C1 (centres undefined) | -23% | 9%
C#CCSc1n[nH]c(=O)n1-c1cccc(C(F)(F)F)c1 | -17% | 6%
Cc1ccc(S(=O)(=O)N2CCOCC2)cc1NC(=O)COC(=O)c1n[nH]c(=O)c2ccccc12 | -12% | -14%
Cc1cc(C(=O)N/N=C/c2cn(C)nc2C)c2ccccc2n1 | 19% | -1%
Cc1ccc(C(=O)Nc2ccccc2C(=O)Nc2ccccn2)cc1Cl | 11% | -2%
O=C(CSc1nnc(-c2ccc(OC(F)F)cc2)o1)N1CCOCC1 | 1% | -30%
O=C(NC1CCCCC1)N1CCC(n2cnc3ccccc32)CC1 | 6% | 1%
O=C(O)C1CCN(S(=O)(=O)c2ccc3c(c2)OCCCO3)CC1 | -10% | -2%
COc1cccc2sc(N(CCCN(C)C)C(=O)CCS(=O)(=O)c3ccccc3)nc12 | ? | -9%
CCCS(=O)(=O)NCCc1cc2cc(C)c(C)cc2[nH]c1=O | 2% | 1%
CCNC(=O)COc1ccc2ccccc2c1 | -12% | 6%
O=C(Nc1ccccc1)c1cccc(N2C(=O)CCC2=O)c1 | 1% | -2%
CNc1snc(C)c1C(=O)OCC(=O)c1ccc(OC)c(F)c1 | -12% | .
CCCC(C)NC(=O)COC(=O)c1cccc(NS(C)(=O)=O)c1 (centres undefined) | 1% | 5%
SMILES | FEN1 inh | N370S GC mod
O=C(C1COc2ccccc2O1)N1CCCCC1 (centres undefined) | 4% | .
COc1cccc(CNCc2cccnc2)c1OCc1ccccc1 | 2% | 1%
CCN(Cc1ccccc1)S(=O)(=O)c1cc(C(=O)NCC2CCCCC2)ccc1OC | -6% | 28%
CC(C)n1nnnc1C(c1ccc(F)cc1)N1CCN(C2CCCC2)CC1 (centres undefined) | 6% | -26%
Cc1ccc2[nH]c(-c3cccc(F)c3)cc(=O)c2c1 | 1% | -6%[89.1 µM]
Cc1cc(C(=O)N/N=C/c2ccc(-c3cccc(Cl)c3)o2)n[nH]1 | -3% | -8%
O=C(COC(=O)C1=COCCO1)Nc1ccc(Oc2ccccc2)cc1 | -7% | -12%
CCCOc1ccc(S(=O)(=O)n2cc(Br)c(=O)[nH]c2=O)cc1 | 0% | -17%
O=C(Nc1ccc2c(c1)OCO2)C1CCN(Cc2cnn(-c3ccccc3)c2-n2cccc2)CC1 | -3% | 7%
Cc1cccc(NC(=O)c2ccc(COc3ccc4ccccc4c3)o2)n1 | -23% | ?
COC(=O)c1nn(-c2ccccc2)c(=O)cc1O | -1% | -2%
Cc1c(C(N)=O)sc(N)c1C(=O)OC(C)C | -8% | -15%
O=C(/C=C/c1cccs1)NC(=S)NNC(=O)Cc1cccs1 | 3% | 2%

Record cards, as listed above. Order of screens: FEN1 inh | N370S GC mod
Profile of `O=[N+]([O-])c1ccc(Sc2nc3ccccc3o2)c([N+](=O)[O-])c1` : -5% | 0%
Profile of `Nc1ncnc2nc(Sc3ccc(Cl)cc3)[nH]c12` : 2% | -2%
Profile of `CC(C)(C)c1ccc(-c2nc(S(=O)(=O)c3ccccc3)c(N3CCOCC3)o2)cc1` : -16% | .
Profile of `CCOCCCNC(=S)N1CCCN(c2nc3cc(C)c(C)cc3cc2C#N)CC1` : -20% | 15%
Profile of `COC(=O)CCC(=O)OC1(C)C(=O)C2=CN(CCN3CCOCC3)C(c3ccc(OC)cc3)=CC2=C(Br)C1=O` (centres undefined) : . | -10%[12.8 µM]

At a glance, some entries already given:
SMILES | FEN1 inh | N370S GC mod
Cc1c(C(N)=O)sc(N)c1C(=O)OC(C)C | -8% | -15%
O=C(/C=C/c1cccs1)NC(=S)NNC(=O)Cc1cccs1 | 3% | 2%

A portion of the library; most or all hits stand in other tables.
